GIRK2 activ – GIRK2 channel activation; calls only for hits at 25 µM; HEK293-GIRK2 thallium flux, Thallos fluorescence; 0.05% of 63,000 active; P48051;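 active = among the strongest 0.2% of first-round signals and kept after retests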;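 note: first round at about 10 µM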
Target sequence (P48051 whole entry, looked up): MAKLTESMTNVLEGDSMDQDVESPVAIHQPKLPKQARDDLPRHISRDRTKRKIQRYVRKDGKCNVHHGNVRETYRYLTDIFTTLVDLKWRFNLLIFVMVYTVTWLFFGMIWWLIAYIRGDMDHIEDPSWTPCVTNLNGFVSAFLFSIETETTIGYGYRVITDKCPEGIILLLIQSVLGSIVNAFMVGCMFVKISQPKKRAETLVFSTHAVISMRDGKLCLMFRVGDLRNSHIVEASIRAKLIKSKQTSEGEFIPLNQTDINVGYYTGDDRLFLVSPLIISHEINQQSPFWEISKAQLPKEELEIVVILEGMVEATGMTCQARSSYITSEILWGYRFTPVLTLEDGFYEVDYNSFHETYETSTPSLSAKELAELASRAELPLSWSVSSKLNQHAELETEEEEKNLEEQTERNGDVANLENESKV
Calls only; i = inactive. Some of the compounds tested; count on the stated rates, not on these rows.

SMILES	GIRK2 activ
O=C1C2N=NN(Cc3nc(-c4cccc(Cl)c4)no3)C2C(=O)N1c1cccc(F)c1 (centres undefined)	i
Cc1ccc(C(O)CNC(=O)C2CC(=O)N(c3ccc(F)cc3)C2)o1 (centres undefined)	i
COc1ccc(CCNC(=O)C2CCCN(c3ccc(-c4ccco4)nn3)C2)cc1OC (centres undefined)	i
Cc1cn2c3c(=O)n(Cc4cccc5ccccc45)c(=O)n(C)c3nc2n1-c1ccc(C(N)=O)cc1	i
O=C(NCCc1ccsc1)NC12CC3CC(CC(C3)C1)C2	i
O=C(Oc1ccc2c(=O)c(-c3ccccc3)coc2c1)N1CCOCC1	i
CC(C)(C)C1CCc2c(sc3nc(CCC(=O)NCc4ccc5c(c4)OCO5)[nH]c(=O)c23)C1 (centres undefined)	i
CCOC(=O)c1cnn2ccc(NC(=O)/C=C/c3cccs3)cc12	i
Cc1cc(O)cc(Oc2cc(C)c3c(c2)OC(C(C)(C)O)C3)c1 (centres undefined)	i
COc1nn(C)cc1C(=O)N1CC(c2nc(-c3ccccc3)no2)C1	i
O=C(c1cccc(Br)c1)N(Cc1ccoc1)Cc1cccs1	i
CCOc1ccccc1C(=O)N1CC(c2nc(-c3ccco3)no2)C1	i

Part of the list above in a different format.
O=C(c1cccc(Br)c1)N(Cc1ccoc1)Cc1cccs1
  GIRK2 activ: i

CC(C)(C)C1CCc2c(sc3nc(CCC(=O)NCc4ccc5c(c4)OCO5)[nH]c(=O)c23)C1 (centres undefined)
  GIRK2 activ: i

Further compounds follow.
SMILES	GIRK2 activ
Cc1ccc(-c2cc3c(=O)n(CC(=O)Nc4c(C)cccc4C)ccn3n2)cc1	i
O=C(c1c(F)cccc1Cl)N1CCC(Cn2c(C(F)(F)F)nc3ccccc32)CC1	i
Cc1ccc(C)c(NC(=O)CSc2n[nH]c(=O)c3cc(-c4cccs4)nn23)c1	i
COc1cccc(Cn2c(=O)n(CCCCC(=O)NCc3ccco3)c(=O)c3ccccc32)c1	i
COCCn1c(=O)c2c(nc(-n3nc(C)c(C)c3C)n2CCOC)n(C)c1=O	i
Cc1ccc(S(=O)(=O)N(Cc2ccc(Br)cc2)C(=O)N2CCN(C)CC2)cc1	i
COc1ccc(C(=O)NC2CCN(C(=O)c3cc(-c4ccc(F)cc4)n[nH]3)CC2)cc1	i
Cc1cc(=O)n(CC(=O)Nc2ccc3c(c2)OCO3)c(N2CCCC2)n1	i
O=S(=O)(Cc1cccc(F)c1)N1CC(c2nc(-c3cccs3)no2)C1	i
O=C(N1CCN(CCn2cccn2)CC1)C1(c2cccs2)CCCC1	i
CCOC(=O)CCC(=O)N1CCCC(c2nnc(Cc3ccccc3)s2)C1 (centres undefined)	i
CCOC(=O)NCCc1csc2nc(C)cc(=O)n12	i
COc1ccc(OC)c(COCC(O)CN(C)C)c1 (centres undefined)	i
O=C(Nc1ccc2c(c1)C(=O)Nc1ccccc1O2)c1ccc2nsnc2c1	i
Cn1c(=O)c2c(nc(CN3CCN(c4ccccc4)CC3)n2CC(=O)C(C)(C)C)n(C)c1=O	i
O=C(Nc1nc2c(s1)CN(C(=O)c1nc3ccccc3s1)CC2)c1ccsc1	i
Cc1oc(-c2ccccc2)nc1Cn1c(=O)n(Cc2ccc(F)cc2)c(=O)c2sccc21	i
COCCn1c(=O)c2c(nc3n2CC(C)CN3c2ccc(OC)cc2)n(C)c1=O (centres undefined)	i
O=C(Nc1ccc(Cl)cc1)c1cn(Cc2ccc(NC(=O)c3ccccc3F)cc2)cn1	i
Cc1nc(-c2ccc(N3CCN(S(=O)(=O)c4ccc5c(c4)OCCO5)CC3)nc2)no1	i
CN(CC(=O)Nc1nc(-c2cccnc2)cs1)C(=O)c1ccc(=O)[nH]c1	i
Cc1cc(C(=O)N2CCOCC2CN(C)CCO)c(C)o1 (centres undefined)	i
COC(=O)c1sccc1NC(=O)CSc1nccnc1N1CCN(c2ccccc2)CC1	i
CCCn1c(=N)c(S(=O)(=O)c2ccc(Cl)cc2)cc2c(=O)n3cc(C)ccc3nc21	i
CC(O)(CNS(=O)(=O)c1ccc(N2CCCCS2(=O)=O)cc1)c1ccco1 (centres undefined)	i
CC(=O)c1ccc(C(=O)N(Cc2ccncc2)c2nc3c(C)ccc(Cl)c3s2)cc1	i
COc1ccc2[nH]c(C(=O)NCc3ccc(OC)c(OC)c3)c(NC(=O)c3ccccc3)c2c1	i
O=S(=O)(NCC1CCN(S(=O)(=O)c2cccnc2)CC1)c1ccccc1	i
CC(NC(=O)c1ccc(Oc2nccnc2N2CCSCC2)cc1)c1ccc(F)cc1 (centres undefined)	i
Cc1cccc(-c2noc(Cn3c(=O)n(Cc4ccccc4)c(=O)c4sccc43)n2)c1	i
O=C(CSc1nnc(Cn2ccc(=O)[nH]c2=O)o1)NCc1ccco1	i
Cc1ccc2oc(C(=O)Nc3c(C)cccc3C(=O)O)c(C)c2c1	i
O=C(NCC(O)C1CCCCC1)c1ccc(-c2ccccc2)cc1 (centres undefined)	i
Cc1ccc(S(=O)(=O)Nc2ccc3c(c2)CCCN3S(C)(=O)=O)cc1	i
Cc1cc(C)cc(-n2ccn(Cc3nc(-c4cccs4)no3)c(=O)c2=O)c1	i
CCOc1ccc(NC(=O)C(C)Cn2cncn2)cc1 (centres undefined)	i

Part of the list above, in markdown.
| canonical_smiles | GIRK2 activ |
| --- | --- |
| Cc1ccc2oc(C(=O)Nc3c(C)cccc3C(=O)O)c(C)c2c1 | i |
| Cc1cccc(-c2noc(Cn3c(=O)n(Cc4ccccc4)c(=O)c4sccc43)n2)c1 | i |

Back to the main list with the six entries that preceded the break.
SMILES	GIRK2 activ
O=C(CSc1nnc(Cn2ccc(=O)[nH]c2=O)o1)NCc1ccco1	i
Cc1ccc2oc(C(=O)Nc3c(C)cccc3C(=O)O)c(C)c2c1	i
O=C(NCC(O)C1CCCCC1)c1ccc(-c2ccccc2)cc1 (centres undefined)	i
Cc1ccc(S(=O)(=O)Nc2ccc3c(c2)CCCN3S(C)(=O)=O)cc1	i
Cc1cc(C)cc(-n2ccn(Cc3nc(-c4cccs4)no3)c(=O)c2=O)c1	i
CCOc1ccc(NC(=O)C(C)Cn2cncn2)cc1 (centres undefined)	i
Cc1cc(C)n(-c2ccc(N3CCC(C(=O)NCc4ccc5c(c4)OCO5)CC3)nn2)n1	i
COc1cccc2sc(N(CCN(C)C)C(=O)c3cc(C)n(C)n3)nc12	i
CCc1ccccc1NC(=O)CN(C)c1nc2c(C)ccc(C)c2s1	i
O=C(c1ccncc1)N1CCc2cc(S(=O)(=O)NC3CCCC3)ccc21	i
O=C(NCC(=O)N1CCN(c2ccc(C(F)(F)F)cn2)CC1)c1c[nH]c2ccccc12	i
Cc1nc(SCc2ccccc2)[nH]c(=O)c1CC(=O)Nc1ccc(OC(F)(F)F)cc1	i
CN(C)CC1CSCCCN1S(=O)(=O)Cc1ccc(C(F)(F)F)cc1 (centres undefined)	i
CSCC(C)(O)CNC(=O)COc1ccc2ccccc2c1 (centres undefined)	i
CN(C)CCCN1C(=O)C(=O)C(=C(O)c2ccc3c(c2)OCCO3)C1c1cccnc1 (centres undefined)	i
Cc1cc(N2C(=O)c3oc4ccc(Cl)cc4c(=O)c3C2c2ccccn2)no1 (centres undefined)	i
Cc1ccc(S(=O)(=O)NCCCN2CCN(c3ccccc3)CC2)cc1C	i
CCOc1ccc(-n2c(SCC(=O)Nc3ccccc3OCC)nc3ncccc3c2=O)cc1	i
Cc1cn2c3c(=O)n(C)c(=O)n(C)c3nc2n1-c1ccc(OC(C)C)cc1	i
CCOCCn1c(N2CCN(CC(=O)OCC)CC2)nc2c1c(=O)[nH]c(=O)n2C	i
COCCNC(=O)c1c(N)n(/N=C\c2ccncc2)c2nc3ccccc3nc12	i
COc1ccc2c(c1)c(CC(=O)Nc1cnccn1)c(C)n2C(=O)c1ccc(Cl)cc1	i
COc1cc(OC)cc(C(=O)Nc2cccc(-n3c(C)nc4ccccc4c3=O)c2)c1	i
O=C(CN1CC(c2nc(-c3cccc(Cl)c3)no2)C1)NCc1ccco1	i
C=CCNC(=O)CCCCCn1c(=S)[nH]c2ccc(Br)cc2c1=O	i
C/C=C/c1ccc(OCC(O)CN2CCN(c3ccccc3F)CC2)c(OC)c1 (centres undefined)	i
O=C(Cn1cncn1)Nc1cc(-n2cccn2)ncn1	i
Cn1c(=O)c2c(nc(N=C/C=C/c3ccc([N+](=O)[O-])o3)n2Cc2ccccc2)n(C)c1=O	i
CCOc1ccc(C(=O)N2CCOCC2CN(C)C)cc1OCC (centres undefined)	i
O=S(=O)(/C=C\c1ccccc1)N1CCN(c2ccc(-c3ccccc3)nn2)CC1	i

Retrieved one by one from the list above:
SMILES	GIRK2 activ
COCCNC(=O)c1c(N)n(/N=C\c2ccncc2)c2nc3ccccc3nc12	i
CCOc1ccc(-n2c(SCC(=O)Nc3ccccc3OCC)nc3ncccc3c2=O)cc1	i
O=S(=O)(NCC1CCN(S(=O)(=O)c2cccnc2)CC1)c1ccccc1	i
O=C(Nc1nc2c(s1)CN(C(=O)c1nc3ccccc3s1)CC2)c1ccsc1	i
Cc1cc(C(=O)N2CCOCC2CN(C)CCO)c(C)o1 (centres undefined)	i
C/C=C/c1ccc(OCC(O)CN2CCN(c3ccccc3F)CC2)c(OC)c1 (centres undefined)	i
CC(O)(CNS(=O)(=O)c1ccc(N2CCCCS2(=O)=O)cc1)c1ccco1 (centres undefined)	i

Next section:
SMILES	GIRK2 activ
O=C(NCc1cccs1)N1CCC(Oc2nc3c(F)cccc3s2)CC1	i
O=C(Cc1noc2ccccc12)N1CC(c2nc(-c3cnccn3)no2)C1	i
CCCOc1ccc(S(=O)(=O)Nc2ccc3c(c2)N(S(=O)(=O)CCC)CCC3)cc1	i
COc1ccc(NC(=O)C(=O)NCCc2ccco2)cc1OC	i
CCc1cccc(N2Cc3ccccc3OC(C)C2=O)c1 (centres undefined)	i
COc1ccc(CCNC(=O)Cn2nc(-c3cccc(Br)c3)ccc2=O)cc1OC	i
COc1ccc(-n2c(-c3ccccc3)cn3c4c(=O)n(CC(C)=O)c(=O)n(C)c4nc23)c(OC)c1	i
COCCCNC(=O)c1ccc(Oc2coc3cc(OC)ccc3c2=O)cc1	i
COc1ccc(CNC(=O)NC(C)Cc2cccs2)cc1OC (centres undefined)	i
O=C1NC(=O)/C(=C/c2ccc3nccnc3c2)S1	i
CCOc1ccc(NC(=O)C(=O)NCC(c2cccn2C)N2CCCC2)cc1 (centres undefined)	i
O=C(NCCCN1CCCC1=O)C(=O)NCCc1ccccc1	i
CS(=O)(=O)Nc1cccc(NC(=O)/C=C/c2cccs2)c1	i
Cc1nc(-c2ccccc2)sc1CNC(=O)c1cc(-c2ccccc2)nn1C	i
CS(=O)(=O)c1ccc(-c2cc(Br)sc2-c2ccc(F)cc2)cc1	i
O=C(Nc1nccs1)c1ccc(OCc2nc(-c3ccco3)cs2)cc1	i
Cc1cc(C)n(-c2ccc(=O)n(CCNC(=O)c3c(F)cccc3F)n2)n1	i
COc1ccc(NC(=O)c2ccc(S(=O)(=O)N(C)Cc3ccccc3)cc2)cc1	i
COC(=O)c1c(NCc2ccc(OC)cc2OC)c2cc(Cl)ccc2[nH]c1=O	i
Cc1cc(C)n(-c2ccnc(N3CCC(C(=O)N4CCC(C)CC4)CC3)n2)n1	i
COCCCNc1nc2ccccc2nc1NS(=O)(=O)c1ccc(C)cc1	i
CCOC(=O)Cn1c(=O)c2c(nc3n(CCCN4CCOCC4)c(C)cn23)n(C)c1=O	i
COc1ccccc1NC(=O)C1CCCN(c2ccc(-c3ccccc3OC)nn2)C1 (centres undefined)	i
CCc1ccc(N2CC(c3nc(-c4cc(OC)c(OC)c(OC)c4)no3)CC2=O)cc1 (centres undefined)	i
COc1ccc(OC)c(-c2cc(C(=O)N3CCC4(CC3)OCCS4)n(C)n2)c1	i
CCCNC(=O)c1sccc1N(C)S(=O)(=O)c1ccc(OC)cc1	i
Cn1c(=O)c(C(=O)Nc2ccc(C(N)=O)cc2)cc2cccnc21	i
CCc1cccc(OCC(O)Cn2c(N3CCCCC3)nc3c2c(=O)n(C)c(=O)n3C)c1 (centres undefined)	i
O=C(Cn1nc2ccc(Sc3ccccc3)nn2c1=O)N1CCN(c2ccc(F)cc2)CC1	i
Cc1cc(NC(=O)C(=O)NCC2CCN(C3CCCC3)CC2)c2ccccc2n1	i
Cc1ccc(Oc2nccn3c(=O)n(CC(=O)Nc4cc(C)ccc4C)nc23)cc1	i
C#CCn1c(=NC(=O)c2ccnn2C)sc2cc(S(C)(=O)=O)ccc21	i
Cc1nc(-c2ccccc2F)sc1CNC(=O)c1ccccc1C(F)(F)F	i
COc1ccc(/C=C/C(=O)NCc2cc(-c3ccncc3)n(C3CCCC3)n2)cc1OC	i
CCOCCCNC(=O)C1CCCN(c2nc3c(-c4ccccc4)csc3c(=O)[nH]2)C1 (centres undefined)	i
Cc1oc(-c2ccccc2)nc1Cn1nnc(C(=O)NCc2ccc(Cl)cc2)c1N	i
Cc1ccc(S(=O)(=O)N(C)c2cc(S(=O)(=O)N(C)CCO)c(C)cc2C)cc1	i
COC(=O)c1cn(CC#N)nc1S(=O)(=O)N1CCCCC1	i
O=C(c1cc2ccccc2o1)N1CCCC(c2nnc(C(F)(F)F)o2)C1 (centres undefined)	i
Cc1ccc(N2CC(C(=O)N3CC(c4nc(-c5cnccn5)no4)C3)CC2=O)cc1C (centres undefined)	i
O=C(Nc1nc(C(=O)N2CCC(Cc3ccccc3)CC2)co1)C1CC1	i
COc1cccc(NC(=O)NCCSc2ncc(-c3ccccc3)[nH]2)c1OC	i
O=C(Nc1ccc(CN2CCN(c3ccccn3)CC2)cc1)c1ccc(F)c(F)c1	i
O=C(/C=C/c1ccc2c(c1)OCO2)N1CCN(Cc2nc(-c3ccco3)cs2)CC1	i
C/C(Cl)=C/Cn1c(Sc2c([N+](=O)[O-])ncn2C)nc2c1c(=O)[nH]c(=O)n2C	i
CCc1ccccc1NC(=O)c1ccc(S(=O)(=O)N(C)c2ccccc2)cc1	i
COc1cc(OC)cc(C(=O)N2CCOCC2CN(C)C)c1 (centres undefined)	i
COc1cccc(-c2ccc(=O)n(Cc3nc(-c4ccccc4Cl)no3)n2)c1	i
O=S(=O)(c1cccnc1)N1CC(c2nc(-c3cnccn3)no2)C1	i
NS(=O)(=O)c1ccc(CNC(=O)c2ccc(OCc3nc(C4CC4)cs3)cc2)cc1	i
Cc1cc(N2C(=O)CCS2(=O)=O)cc(C)c1S(=O)(=O)NC(C)C	i
CCc1ccc(S(=O)(=O)N2CCCC(c3nnc(-c4ccccc4F)s3)C2)s1 (centres undefined)	i

Screens as filed in PubChem.
